# GLA inh pH 4.5: qHTS Assay for Inhibitors of Human alpha-Galactosidase at pH 4.5; Alpha-galactosidase A (Homo sapiens), P06280; 230,000 tested, under 10 active; purified enzyme, 4-MU-alpha-Gal fluorescence, pH 4.5; activity change, negative = inhibition, % at 105 µM; inconclusive = small, poorly fitted or top-dose-only inhibition, or a rising curve; inactive = flat fitted curve, though single readings scatter; no compound was filed as active;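 further: 0% = full activity with enzyme and -100% = basal without enzyme; dose as in the result columns while the protocol names 77 µM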
# Target sequence (P06280 whole entry, looked up): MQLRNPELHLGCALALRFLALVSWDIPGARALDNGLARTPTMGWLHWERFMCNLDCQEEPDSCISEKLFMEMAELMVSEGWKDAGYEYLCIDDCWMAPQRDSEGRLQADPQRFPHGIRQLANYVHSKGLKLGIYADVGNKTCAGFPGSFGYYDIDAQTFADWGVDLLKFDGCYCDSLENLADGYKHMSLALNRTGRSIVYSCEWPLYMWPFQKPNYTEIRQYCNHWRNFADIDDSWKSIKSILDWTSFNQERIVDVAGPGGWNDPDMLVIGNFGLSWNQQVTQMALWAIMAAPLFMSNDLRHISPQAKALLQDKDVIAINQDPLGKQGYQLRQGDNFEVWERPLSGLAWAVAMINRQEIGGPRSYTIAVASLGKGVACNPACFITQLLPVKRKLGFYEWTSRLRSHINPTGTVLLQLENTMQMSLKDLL
# Rango release inh: qHTS Assay for Inhibitors of RanGTP induced Rango (Ran-regulated importin-beta cargo) - Importin beta complex dissociation; Snurportin-1 (Homo sapiens) + GTP-binding nuclear protein Ran (Homo sapiens) + Importin …; Biochemical FRET Rango-importin beta, RanGTP-induced dissociation; Potency, µM (series often up to 46.1 µM), inactives show top-dose activity change, negative = inhibition; 340,000 compounds, 0.071% hits; AID 540253, 2011; active means falling FRET ratio curve, often poorly fitted, with flat reads before Ran was added; inconclusive means other falling curves, or compound fluorescence or quenching; inactive means flat or rising ratio curve;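 further: potency means the concentration at half of the fitted maximal effect; % of control where 0% means no effect; nearly all actives have a fitted effect of over 45% in size; -100% = wells without RanGTP and RCC1; the record marks most hits as doubtful in a second field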
#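 Recombinant Rango FRET biosensor (EYFP–snurportin 1 IBB–cerulean CFP10) at 0.1 uM premixed with 0.25 uM importin beta in PBS, 1 mM DTT, 0.02% Tween-20, 0.1% BSA. Compound added 5 min; RanGTP-RCC1 (0.6 uM Ran, 2 mM GTP, 0.2 uM RCC1) then triggers release, read at 45 min.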
# miR-21 FLuc: qHTS Assay for Modulators of miRNAs and/orActivators of miR-21 | AID 2288, 2010 | HeLa miR-21 FLuc reporter, luciferase, 48 h | Potency, µM (highest dose often 38.3 µM), without a hit: at the top dose reporter change, positive = more light | 340,000 tested, under 10 active; active = well fitted rising curve with a large enough effect; inconclusive = small, poorly fitted or top-dose-only effect; inactive = no such curve, though single readings can be large or run the other way;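 further: % of control where 0% means no effect; miR-21 action dims this reporter so a rising signal means less miR-21 action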
#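 Using DMEM plus 10% FBS, HeLa miR-21-FLuc cells are incubated with test compounds (final up to about 40uM) for 48 hours; firefly luciferase signal is then imaged following reagent-mediated lysis.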
# Rango complex inh: qHTS Assay for Inhibitors of Rango (Ran-regulated importin-beta cargo) - Importin beta complex formation. Rango CFP/YFP FRET sensor + importin beta, 45 min. Importin subunit beta-1 (Homo sapiens), Q14974. 340,000 compounds, 0.031% hits. Potency, µM (highest dose often 92.2 µM), without a hit: at the highest dose inhibition of complex formation; active = rising FRET ratio curve, often small or poorly fitted; inconclusive = mostly compound fluorescence or quenching in the first reads; inactive = flat curves in all reads;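 further: potency means the concentration at half of the fitted maximal effect; 0% = DMSO wells and 100% = buffer wells lacking importin beta; nearly all actives have a fitted effect of over 15% in size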
#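 FRET biosensor (snurportin 1 IBB flanked by EYFP and cerulean), 50 nM, with compound 5 min, then 0.125 microM importin beta in PBS, 1 mM DTT, 0.02% Tween-20, 0.1% BSA. CFP/YFP ratio read after 45 min at room temperature; pre-read flags interference.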
# * marks the source's active call; other numbers are inactive results; ? = inconclusive; / = no result given; & = joins results of further samples; [ ] = dose if it differs, or a comment. A portion of the library. The share of hits here may be higher or lower than overall.
SMILES,GLA inh pH 4.5,Rango release inh,miR-21 FLuc,Rango complex inh
CC1=N/C(=C\c2ccc([N+](=O)[O-])cc2)C(=O)N1c1cc(Cl)ccc1C,6,-8%,2%,-4.0%
O=C(COC(=O)/C=C/c1cccc(Cl)c1)Nc1ccc2[nH]c(=O)[nH]c2c1,/,-20%,/,-0.6%
CC(C)CCn1c(=O)c2ccccc2n2c(CN(C)Cc3ccccc3)nnc12,-14,-15%,11%,-2.1%
COc1ccc(-c2n[nH]c3c2CN(C(=O)c2ccc(OC)c(OC)c2)CC3)cc1,/,-7%,18%,1.7%
COc1ccccc1NC(=O)c1ccc2nc(-c3ccccc3)c(-c3ccccc3)nc2c1,5,-16%,0%,2.2%
C/C(=N\NC(=O)c1c(C)nc2ccccn12)c1ccc(O)cc1O,/,?,30%,?
Cc1ccc(NC(=O)C(=O)NCC2CCCN2S(=O)(=O)c2cccs2)c(C)c1 (stereo not given),/,0%,/,0.1%
CCCc1[nH]nc2c1C(c1cccc(OC(=O)c3ccco3)c1)C(C#N)=C(N)O2 (stereo not given),-2,-9%,2%,-1.0%
COc1ccc(CNc2nc(-c3ccccc3)nn2C(=O)c2ccc([N+](=O)[O-])cc2)cc1,-5,4%,-62%,-3.3%
CNC(=O)[C@H]1O[C@@H](n2cnc3c(NCc4cccc(I)c4)ncnc32)[C@H](O)[C@@H]1O,/,2%,/,0.1%
CN(C)c1ccc(C(CNS(=O)(=O)c2ccc([N+](=O)[O-])cc2)N2CCOCC2)cc1 (stereo not given),/,-10%,/,-1.9%
O=C(NCc1ccccc1)c1onc(CSc2ccc(F)cc2)c1C(=O)NCCCN1CCOCC1,7,-10%,-3%,-2.3%
Cn1cccc1/C=C1\SC(=S)N(CC(=O)O)C1=O,-10,?,2%,?
O=C(Nc1ccc([N+](=O)[O-])cc1)c1ccc(S(=O)(=O)N2CCCC2)cc1,/,-15%,5%,1.1%
CC(C)C[C@H]1CN([C@@H](CC(C)C)CN2CCC[C@@H]2CN2C(=O)C(=O)NC[C@@H]2Cc2ccccc2)C(=O)C(=O)N1CC1CCCCC1,/,?,/,0.3%
Cc1cccc(C)c1NC(=O)Cn1nnc(-c2ccc(N3CCOCC3)cc2)n1,1,3%,-8%,0.1%
O=c1[nH]c(-c2ccccc2F)nc2c1sc(=S)n2Cc1ccccc1,5,19%,-4%,4.4%
CC(C)(C)NC(=O)c1ccccc1NC(=O)C1CC(=O)N(C2CCCCC2)C1 (stereo not given),/,12%,-1%,0.1%
CCn1ccnc1CN1CCN(CCC(C)C)C(CCO)C1 (stereo not given),-1,-8%,-2%,2.7%
CCOC(=O)c1c(C)[nH]c(C(=O)OCC(=O)N2CCCC2=O)c1C,/,-14%,/,4.9%
CCOc1ccc(OCC)c(NC(=O)CN(c2ccc(C)cc2)S(=O)(=O)c2c(C)noc2C)c1,-3,-3%,21%,-0.6%
CCCNC(=O)c1ccc2c(=O)c(O)c(-c3ccc(Cl)c([N+](=O)[O-])c3)[nH]c2c1,-6,?,-4%,0.3%
O=C(c1cc(S(=O)(=O)N2CCCCC2)c(Cl)cc1N1CCOCC1)N1CCOCC1,2,7%,-3%,3.3%
COc1ccc(NC(=O)CC(NC(C)c2ccccc2)C(=O)O)cc1 (stereo not given),/,-9%,1%,0.8%
CCN(c1ccc(NC(=O)c2ccc(Cl)nc2)cc1)C(C)C,-3,-6%,2%,0.9%
# Other compounds follow.
SMILES,GLA inh pH 4.5,Rango release inh,miR-21 FLuc,Rango complex inh
O=C(CCC(=O)N1CCN(C2CCCCC2)CC1)Nc1nnc(C(F)(F)F)s1,7,14%,0%,-1.0%
CCN(CC(=O)NC(C)C)C(=O)[C@H](C)NC(=O)c1ccc(Br)cc1,6,0%,-1%,-3.7%
CCCCNC(=O)COC(=O)c1cc(F)c(F)cc1Cl,3,10%,-6%,0.0%
COc1ccc(C2=NOC3(CC(=O)N(c4ccc5ccccc5c4)C3=O)C2)c(OC)c1 (stereo not given),4,-2%,0%,1.0%
Cc1ccc(Oc2nc3ccccn3c(=O)c2/C=C(\C#N)C(=O)Nc2c(C)n(C)n(-c3ccccc3)c2=O)cc1,4,3%,-2%,-0.8%
O=C(Nc1ccccc1)Nc1cc([N+](=O)[O-])ccc1F,-2,-17%,-10%,?
O=C(Cc1cccs1)Nc1cc(SCCO)cc([N+](=O)[O-])c1,-20,-5%,-22%,-3.2%
CCCOc1ccc(NC(=O)CC2C(=O)N(CC)C(=S)N2CCCN2CCN(Cc3ccccc3)CC2)cc1 (stereo not given),-6,-8%,?,-1.2%
CCOC(=O)C(NC(=O)c1ccccc1)(N1CCCC1=O)C(F)(F)F (stereo not given),-11,8%,-2%,4.3%
Cn1c(=O)oc2ccc(C(=O)CSc3nnnn3-c3ccccc3)cc21,0,-15%,-3%,0.1%
Cc1noc(NC(=O)c2ccccc2)c1C#N,-5,-11%,-10%,4.9%
c1ccc(CCC2CCCCN2Cc2nc(-c3ccc4c(c3)OCO4)no2)nc1 (stereo not given),-5,-10%,-5%,-0.1%
O=C1c2ccccc2NC(c2ccccc2)N1NS(=O)(=O)c1ccccc1 (stereo not given),-29[21.1 µM],-17%,7%,-0.4%
NC(C(=O)O)C1ON=C(Cl)C1O (stereo not given),/,-19%,/,-3.1%
Cc1cc(C(=O)OCC(=O)NC2CCS(=O)(=O)C2)c2ccccc2n1 (stereo not given),-3,-5%,-1%,1.1%
COc1cccc(Oc2ccc(OC)cc2C(=O)O)c1,-14,4%,0%,-3.8%
CCOc1ccc(C(C)NC(=O)Cc2ccccc2F)cc1OCC (stereo not given),3,-9%,-1%,-0.9%
COc1ccc(Br)cc1/C=C/C(=O)NC(=S)Nc1ccc(CN2CCOCC2)cc1,/,-7%,1%,2.6%
COc1ccc(C2=NC(=O)NC2c2ccc(OC)cc2)cc1 (stereo not given),5,2%,-2%,1.4%
CN1CCN(Cc2c(O)ccc3cc(Br)ccc23)CC1,4,1%,0%,1.1%
Cc1ccc(OCCNCC(O)COc2ccccc2)cc1 (stereo not given),/,-5%,-8%,3.4%
Cc1occc1C(=O)N/N=C/c1ccc2c(c1)OCO2,6,-8%,-25%,0.1%
CCSc1ccccc1C(=O)Nc1cc(OC)c(OC)c(OC)c1,8,-13%,4%,1.6%
O=[N+]([O-])c1ccccc1Sc1nccn1Cc1ccccc1,8,-11%,-17%,-1.6%
COC(=O)C1(NC(=O)CNC(=O)OCc2ccccc2)CCCC1,/,8%,/,1.3%
# New compounds follow:
SMILES,GLA inh pH 4.5,Rango release inh,miR-21 FLuc,Rango complex inh
CC(C)CC(=O)Nc1cc2c3c(c1)C(C)C(=O)N3CCC2 (stereo not given),/,-12%,3%,1.5%
CCOc1cc(-c2nc3cc(C)ccn3c2NCC2CCCO2)ccc1O (stereo not given),0,-29%,-7%,3.3%
CCN(C(=O)Cn1nc(C)c([N+](=O)[O-])c1C)c1c(N)n(Cc2ccccc2)c(=O)[nH]c1=O,/,18%,/,2.3%
COc1ccc(OC)c2c(C)cc(NCCN3CCOCC3)nc12,1,1%,-15%,-4.8%
COC(=O)c1cc2c(s1)-c1cc(F)ccc1OC2,16,6%,-6%,?
CCN1C(=O)c2cccc3c(NC(=O)c4ccc(S(=O)(=O)N5CCOCC5)cc4)ccc1c23,-10,?,10%,?
CCC(C)c1ccc2oc(-c3ccc(NC(=O)c4ncn[nH]4)cc3)nc2c1 (stereo not given),-22,-1%,-16%,0.7%
COC(OC)C1(C)C(C#N)=C(N)Oc2c1c(=O)oc1ccccc21 (stereo not given),/,-17%,-5%,2.0%
CCOC(=O)c1sc(NC(=O)CNCc2ccccn2)c(C(=O)OCC)c1C,-14,0%,17%,1.7%
COC(=O)c1ccccc1N=Nc1c(C)n[nH]c1C,-2,2%,3%,-1.9%
COc1ccc(N=Cc2ccc(CNS(=O)(=O)c3ccc(Cl)cc3)o2)cc1,-2,-1%,-18%,1.2%
COc1ccccc1CNC(=O)CCc1c(C)nc2cc(-c3ccccc3OC)nn2c1C,-7,1%,10%&2%,2.3%
CCOC(=O)c1c(C)[nH]c(C(=O)NNC(=O)c2ccc(C(C)(C)C)cc2)c1C,2,11%,-4%,-1.5%
O=C(Nc1ccccc1C(=O)NCCCN1CCOCC1)c1cccc([N+](=O)[O-])c1,/,-4%,-5%,0.6%
CCN(C(=O)CSc1ccc2ccccc2c1)C1CCS(=O)(=O)C1 (stereo not given),3,11%,-2%,-3.6%
O=C(NC1CCN(S(=O)(=O)c2ccc(F)cc2)CC1)c1ccco1,/,18%,-1%,2.1%
Cc1ccc(S(=O)(=O)CCC(=O)OCc2nnc(-c3ccc([N+](=O)[O-])cc3)o2)cc1,/,-2%,/,-0.5%
CC(=O)c1cc2c(cc1C)CCCC2(C)C,/,1%,/,-0.3%
Cc1cccc(NC(=O)NNC(=O)c2cc3occc3[nH]2)c1C,/,9%,-2%,-1.4%
Cc1cccc(OCC(=O)Nc2cc(NC(=O)COc3cccc(C)c3C)cc(C(=O)O)c2)c1C,/,7%,-3%,0.5%
Cc1cc(=O)[nH]c2ccc(S(=O)(=O)NC3CCCCC3)cc12,/,?,-5%,-3.7%
Cc1cc(Cl)ccc1NC(=S)N1CCN(C(=O)C2CCCO2)CC1 (stereo not given),1,-1%,-12%,?
O=C(CN1CCCCCC1)Nc1ccc(F)c(F)c1,1,-1%,-8%,-3.5%
C=CCNc1nc(N2CCOCC2)c(C#N)c2c1CN(C)CC2,2,?,-6%,?
C[C@H]1CN=C(Nc2ccccc2)N1CCc1ccccc1,/,-5%,/,-1.2%
# (cont.)
SMILES,GLA inh pH 4.5,Rango release inh,miR-21 FLuc,Rango complex inh
O=C(NNC(=O)c1ccc2c(=O)n3c(nc2c1)CCC3)c1ccc(F)cc1,/,-12%,/,0.2%
CC(/C=C/c1ccccc1)=N\NC(=O)c1cc(C)[nH]n1,4,2%,-18%,7.7%
CCOc1ncccc1C(=O)OC(C)C(=O)Nc1ccc(N2CCOCC2)cc1 (stereo not given),/,-8%,/,4.0%
COC(=O)COc1ccc(S(=O)(=O)N2CCCCC2)cc1[N+](=O)[O-],-1,-14%,-3%,3.8%
O=C(CCN1CCOCC1)NCc1ccccc1,/,-5%,-4%,3.2%
CN(C)CCN(C)Cc1ccccc1Sc1cccc2ccccc12,-8,13%,29%,5.3%
Nc1c(-c2ccccc2)cnc2ncnn12,2,-6%,-20%,-2.8%
COc1ccc(CCC(=O)Nc2ccc(OC)c(S(=O)(=O)N3CCCCC3)c2)cc1,/,2%,/,1.4%
COc1ccc(Nc2oc(-c3ccc(F)cc3)nc2C#N)cc1,-10,3%,-29%,-0.4%
CC(=O)COc1cccc2ccc(/C=C/c3ccc(Br)s3)nc12,/,2%,-14%,-2.0%
CCc1nnc(NS(=O)(=O)c2ccc(N/C=C\C(=O)c3ccc(F)cc3)cc2)s1,-4,-26%,-34%,?

# An excerpt from above in order of length of the SMILES, rising.
SMILES,GLA inh pH 4.5,Rango release inh,miR-21 FLuc,Rango complex inh
Cc1cccc(NC(=O)NNC(=O)c2cc3occc3[nH]2)c1C,/,9%,-2%,-1.4%
Cc1cc(C(=O)OCC(=O)NC2CCS(=O)(=O)C2)c2ccccc2n1 (stereo not given),-3,-5%,-1%,1.1%
CC1=N/C(=C\c2ccc([N+](=O)[O-])cc2)C(=O)N1c1cc(Cl)ccc1C,6,-8%,2%,-4.0%

# Taken from above.
# CCn1ccnc1CN1CCN(CCC(C)C)C(CCO)C1 (stereo not given) in miR-21 FLuc = -2%
# O=C(Nc1ccccc1C(=O)NCCCN1CCOCC1)c1cccc([N+](=O)[O-])c1 in Rango complex inh = 0.6%

# Compound activity: PubChem BioAssay, National Center for Advancing Translational Sciences (NCATS)
